# TAR Tat displ: TAR RNA-Tat peptide displacers, HIV-1, primary screen, biochemical, FRET, FAM/TAMRA-labeled Tat. actives 0.6% (n = 100,000). AID 1259389, 2018. z-score (no concentration beside the values). HIV-1 TAR RNA, Tat peptide displacement FRET; stronger effect = higher value;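 note: score is relative to mean and SD of negative controls; some compounds called inactive have numbers as strong as hits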
# CDC25B CDK2 inh: primary biochemical HTRF screen for blockers of M-phase inducer phosphatase 2 binding to CDK2/cyclin A; P30305+P24941; HTRF CDC25B-CDK2/CyclinA binding, anti-His/anti-Flag; stronger effect = higher value; actives 0.72% (n = 94,000); AID 1259370, 2018; z-score (test concentration not listed);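 note: score is relative to mean and SD of negative controls; strong numbers were not always called active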
# * = called active by the depositor; . = not tested or not shown.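 Rule for the calls: active = z-score from 3 up in half or more of its runs; inactive = the rest.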 Outcome played no part in choosing rows. About 0.94% of those tested had a hit in this group.
smiles,TAR Tat displ,CDC25B CDK2 inh
CCOc1ccccc1NC(=O)C1CC2CSCN2C12C(=O)N(CC)c1ccccc12 (centres undefined),0.25,.
CC1(C)N=C(NC(=O)Nc2ccccc2)N(c2ccccc2)O1,.,-1.3
CCCCn1c(=O)c(C#N)cc2c(=O)n3ccccc3nc21,-0.06,-0.79
CCCCCC(=O)OC(CN1CCCCC1)CN1CCCC1=O (centres undefined),2.1,-1.3
CCOc1ccc(N(C)S(=O)(=O)c2ccc(-c3cc(C)no3)s2)cc1,-0.4,.
CN(C)Cc1c(O)ccc2oc(Cc3ccccc3)cc12,.,-0.14
O=C(Nc1ccc(Cl)cc1)n1nccc1-c1ccc([N+](=O)[O-])cc1Cl,.,-1.3
O=C(O)c1ccc(CNCc2ccc(F)cc2)s1,-2.1,-0.54
COc1ccc(Cl)cc1NC(=O)CSc1nnc(Cc2c(C)nc3cc(C)ccn3c2=O)n1C,0.83,-0.78
O=C(CS(=O)(=O)c1cccc2nsnc12)Nc1ccccc1Cl,1.3,.
CCC(=O)Nc1ccc2nc3c(=O)[nH]c(=O)[nH]c3nc2c1,-4.7,2.9
OCC(F)(F)C(F)(F)C(F)(F)C(F)(F)C(F)(F)CO,.,-1.6
C=CCSc1nc2c(c(=O)[nH]1)C(c1ccncc1)C(C(=O)OC)=C(C)N2 (centres undefined),-0.74,-1.1
Cc1cc(C(F)(F)F)nn1CC(=O)Nc1sc2c(c1C#N)CCCCC2,1.1,.
CCOc1ccc(-n2c(C)c(C)c3c2ncn2nc(C)nc32)cc1,1.7,-8.2
COc1ccc2c(c1)CC(C(=O)NC1CCCC1)CO2 (centres undefined),0.53,.
CC1CC(=O)Nc2cc(S(=O)(=O)N3CCN(c4ccccc4F)CC3)ccc2S1 (centres undefined),0.87,.
CCOC(=O)c1cc2c(N3CCOCC3)nccc2nc1C(F)(F)F,.,-2.2
OCCN1CCN(C2CCN(Cc3ccccc3Br)CC2)CC1,0.95,-0.08
FC(F)(F)C(F)(F)C(F)(F)Sc1cccc2cccnc12,.,-1.3
Cc1ccc(NS(=O)(=O)c2ccc3nc(-c4ccccc4)[nH]c3c2)c(Cl)c1,.,-1.2
CC(C)Cn1c(=O)c2ccccc2n2c(CCC(=O)NC3CC3)nnc12,1.3,-1.5
CCOC(=O)NC(=S)N1CCCC1,.,-1.2
O=C(Nc1c2c(nn1-c1ccc(F)cc1)CSC2)C(=O)N1CCCC1,1.4,.
C=CCn1c(=O)n(-c2cccc(Cl)c2)c(=O)c2c3c(sc21)COC(C)(C)C3,-0.05,-1.1
COCCN1C(=O)c2c(NC(C)=O)c3cc(OC)ccc3n2CC1(C)C(=O)NC1CCCC1 (centres undefined),1.1,.
CC(C)Cn1c(CN2CC(C)CC(C)C2)nc2c1c(=O)n(C)c(=O)n2C (centres undefined),2.5,-0.72
CCCc1cc(=O)n2nc(N3CCC(C(=O)NCCCN4CCc5ccccc5C4)CC3)sc2n1,1.5,-0.72
CCOc1c(Nc2ccc(Br)c(C)c2)c(=O)c1=O,1.6,.
CCN(C(=O)[C@H]1[C@@H]2C[C@@H]3[C@H]1C(=O)O[C@@H]3C2)c1ccccc1,2.2,-1.7

# Some of the entries above in a different format.
# Order of values – TAR Tat displ	CDC25B CDK2 inh
> CCCc1cc(=O)n2nc(N3CCC(C(=O)NCCCN4CCc5ccccc5C4)CC3)sc2n1
 : 1.5	-0.72
> CCOc1c(Nc2ccc(Br)c(C)c2)c(=O)c1=O
 : 1.6	.

# Following part
smiles,TAR Tat displ,CDC25B CDK2 inh
CC(C)(C)c1csc(NC(=O)CCS(=O)(=O)c2ccc(F)cc2)n1,0.17,.
Cc1nn(CCCC(=O)NCC2CCCO2)c(=O)c2cc3sccc3n12 (centres undefined),-1.1,-1.5
NC(CSCSCC(N)C(=O)O)C(=O)O (centres undefined),1.1,.
Oc1ccccc1-c1nc2ccccc2o1,1.3,-3.1
COC(=O)c1ccc(-c2nn(C)c(=O)c3ccccc23)cc1,1,-0.57
COc1ccc(CCN[C@H]2CS(=O)(=O)C[C@@H]2S(=O)(=O)c2ccccc2)cc1,-0.63,-2
O=C(c1ccccc1)N1CCc2cc3ccccc3nc21,0.3,-2.2
O=c1c2ccccc2nc2sc(Nc3ccc(F)c(F)c3)nn12,1.6,.
Cc1cc(C)cc(N(C(=O)c2ccc3c(c2)OCO3)C2C=CS(=O)(=O)C2)c1 (centres undefined),.,-0.78
CCN(CC)CCNC(=O)C1=NN(c2ccc(OC)cc2)C(=O)CC1,.,-0.78
Cn1nc(C(=O)N2CCc3ccccc3C2)c2c1-c1ccccc1SC2,2.2,-2.3
CC1(C)C(=O)Nc2ccc(S(=O)(=O)N3CCN(c4cccc(Cl)c4)CC3)cc21,0.24,.
CCCc1nc2sc3c(NCCCO)ncnc3c2c2c1COC(C)(C)C2,0.21,-1
CC1C(=O)OC2(c3ccc(Br)cc3)C(C)C(=O)OC12 (centres undefined),.,-1
CSc1ncc2c(=O)[nH]cnc2n1,-2.3,3.6
Fc1ccccc1CSc1nncn2c1cc1sccc12,1.1,.
CCCCNC(=O)c1c(C)c(C(=O)OCC)n(CC)c1C,.,-1.8
Cc1ccc(C(=O)Nc2cnc3oc(-c4ccc(C(C)C)cc4)nn3c2=O)cc1,-5.2,.
O=C(COc1ccc(Cl)cc1)Nc1nnc2n1CCS2,0.15,.
O=C(c1ccc(CS(=O)c2ccccc2Cl)o1)N1CCN(c2ccccn2)CC1 (centres undefined),0.83,.
O=c1c2cccnc2n(Cc2ccc(F)cc2)c(=O)n1Cc1ccc2c(c1)OCO2,1.2,-0.19
COC(=O)c1sc(SC)c(S(=O)(=O)c2ccc(C)cc2)c1N,0.1,-0.42
CC(=O)OC1CCC2(O)CC1(C)CCC1C2CC1(C)C (centres undefined),2.9,.
Cc1nn(CCCC(=O)NCCCN2CCN(C3CCCCC3)CC2)c(=O)c2cc3occc3n12,1.2,-1.8
Cc1ccc(C)c(Cn2c(C)c(CNCCc3ccco3)c(C(=O)O)c2C)c1,3.6,.
COc1ccc(OC)c(C2OC(COc3ccc(Br)cc3)=NN2C(C)=O)c1 (centres undefined),0.62,.
Cc1c(C(=O)N2CCOCC2)oc2ccc(S(=O)(=O)N3CCOCC3)cc12,.,-0.3
CCC(C)NC(=O)C1CCCN(S(=O)(=O)c2c(C)noc2/C=C/N(C)C)C1 (centres undefined),0.3,-0.02
COc1cc(C(=O)Nc2sc3c(c2C(N)=O)CCCC3)cc(OC)c1OC,.,-0.91
CCCN(CCC)C(=O)c1cc2c(=O)n(CC)c3ccccc3c2s1,0.54,-0.14
CCNC(=O)N(C)c1nncnc1C(=O)NC,0.5,-0.5
COc1cc2nc(N3CCN(C(=O)C4CCCO4)CC3)nc(N)c2cc1OC (centres undefined),2,.
COc1c(C(=O)O)ccc2c1CCC(C)(C)O2,-0.03,.
Cc1ccc(C2CC(=O)N3CN(c4ccc(Br)cc4)CSC3=C2C#N)o1 (centres undefined),-1.9,7.3*
Cc1ccc(Sc2ccc(C#N)cc2[N+](=O)[O-])cc1,.,0.48
Cc1csc(NC(=O)CSc2nc(=O)[nH]c3c2CCCC3)n1,1.3,.
C=CCOc1ccc(/C(O)=C2/C(=O)C(=O)N(CCCN(C)C)C23C(=O)N(C)c2ccccc23)cc1 (centres undefined),-0.89,1.3
CSc1ncc(C(=O)Nc2c(C)cc(C)cc2C)c(C)n1,-4.4,.
COc1ccc(Nc2nc3ccccc3c3nnc(C)n23)cc1OC,2,.
COc1ccc(NC(C)=O)c(NC(=S)Nc2ccc(C)cc2C)c1,.,0.33
O=C1CC(C(=O)N2CCOCC2)CN1CCc1c[nH]c2ccc(Cl)cc12 (centres undefined),0.77,-1.9
Cc1nn(-c2ccc(N3CCN(c4ccccc4)CC3)nn2)c(C)c1CCC(=O)O,1.4,-0.6
CCOc1ccc(CN2CCc3nc(N4CCN(CC)CC4)ncc3C2)cc1,0.68,.
CNC(=O)c1cccc2cccc(S(=O)c3cccc4cccc(C(=O)O)c34)c12 (centres undefined),.,-0.14
O=C(NC1CCCc2ccccc21)C1CCN(c2ncnc3c2nc2n3CCCCC2)CC1 (centres undefined),0.01,.

# Given field by field: entries from further up.
> CCOc1ccc(CN2CCc3nc(N4CCN(CC)CC4)ncc3C2)cc1
  TAR Tat displ: 0.68 | CDC25B CDK2 inh: .
> COc1c(C(=O)O)ccc2c1CCC(C)(C)O2
  TAR Tat displ: -0.03 | CDC25B CDK2 inh: .
> Cc1ccc(Sc2ccc(C#N)cc2[N+](=O)[O-])cc1
  TAR Tat displ: . | CDC25B CDK2 inh: 0.48
> C=CCOc1ccc(/C(O)=C2/C(=O)C(=O)N(CCCN(C)C)C23C(=O)N(C)c2ccccc23)cc1 (centres undefined)
  TAR Tat displ: -0.89 | CDC25B CDK2 inh: 1.3

# Next part
smiles,TAR Tat displ,CDC25B CDK2 inh
COC(=O)c1ccc(NS(=O)(=O)c2ccc3c(c2)oc(=O)n3C)cc1,0.49,-0.72
CCOc1ccccc1N1CC(c2nc3ccccc3n2CC(C)C)CC1=O (centres undefined),0.95,-2.3
O=C1Oc2ccc(Br)cc2CC1C(=O)N1CCCCC1 (centres undefined),.,-0.31
Cc1c(C(=O)O)c2cc(NS(=O)(=O)c3cccs3)ccc2n1S(=O)(=O)c1cccs1,-0.62,-0.95
O=C(Nc1ccc(F)cc1F)N1CCN(c2ncccn2)CC1,-0.64,0.55
CC(=O)OC(C(=O)O)c1ccccc1 (centres undefined),.,-0.99
COc1ccc(OC)c(NC(=O)C2=C(C)C(=O)OC23CCCCC3)c1,-0.85,0.41
CC(C)c1ccc(NC(=O)c2cnc3sc4c(n3c2=O)CCCC4)cc1,-2.5,.
Cc1cc(C)nc(N2N=C(c3ccccc3)CC2=O)n1,2.1,-4
O=S1(=O)CCN(Cc2ccc(NS(=O)(=O)c3cccs3)cc2)CC1,.,-1.3
Cn1c(=O)oc2cc(S(=O)(=O)N3CCCC3c3ccc(Cl)cc3)ccc21 (centres undefined),0.05,-1.3
Cc1ccc(C)c(NC(=O)Nc2c(C)[nH]c(=O)[nH]c2=O)c1,-0.51,-1.7
Cc1ccc2cc3c(N)nn(C(=O)c4ccc(F)cc4)c3nc2c1,1.9,-0.59
Cc1c(C(=O)N2CCCC2)oc2c1-c1nn(CC(=O)N3CCOCC3)cc1CC2,0.31,.
Cc1ccc(O)c(C2=NN3C(C2)c2cc(Br)ccc2OC3c2ccncc2)c1 (centres undefined),-1.8,-1.1
COC(=O)c1ccc(Cn2c(=O)c3cccn3c3cccnc32)cc1,0.25,0.27
O=C(O)C1CCCCC1C(=O)NCc1cn2ccccc2n1 (centres undefined),0.15,-1.1
C=CCN(Cc1nc(-c2ccc(OC)cc2)no1)S(=O)(=O)c1ccc(C)cc1,-0.4,-2.3
COC(=O)CN1c2ccccc2NC2=C(C(=O)CC(C)(C)C2)C1c1ccco1 (centres undefined),-3.3,-2.6
CS(=O)(=NC(=O)c1ccccc1)c1ccsc1 (centres undefined),.,-1.4
O=C(CC1(O)C(=O)Nc2ccc(Br)cc21)c1cccc(Cl)c1 (centres undefined),1.6,.
Cn1c2ccccc2c2cnn(CC(=O)NCCCN3CCc4ccccc4C3)c(=O)c21,1.4,-0.37
COC(=O)CN1CNc2c(c(=O)n(C)c(=O)n2C)C1,0.09,-1.9
Cc1ccc(NS(=O)(=O)c2c(C)nc3sccn3c2=O)nc1,-2.4,.
O=C(NNC(=O)c1ccccc1[N+](=O)[O-])c1cc2c(s1)-c1ccccc1CC2,.,-0.59
O=C(Nc1ccccc1-c1nc2ccccc2s1)c1ccccc1,.,-0.91
CCOC(=O)N1CCC(NS(=O)(=O)c2ccc3c(c2)n(C)c(=O)c(=O)n3C)CC1,0.43,-1.3
C=CCN(CC=C)Cc1c(O)ccc2c(=O)c(-c3ccccc3Cl)coc12,.,-0.91
CN(C(=O)NCc1noc2ccccc12)c1cccc(Cl)c1,-0.38,.
COc1cc(NC(=O)C2COc3ccccc3O2)c(OC)cc1Cl (centres undefined),-0.16,-1.1
CC(C)CN(CC(C)C)S(=O)(=O)c1ccc2c(c1)oc(=O)n2C,.,-1.4
CCc1ccc(Nc2cc(CC)nc3ncnn23)cc1,1.9,-1.1
CC(C)c1nc(SCC(=O)NCc2ccc3c(c2)OCO3)c2c(=O)n(C)c(=O)n(C)c2n1,-0.37,.
Cc1ccc(CNC(=O)Cn2cnc(S(=O)(=O)N3CCOCC3)c2)o1,0.41,.
O=C1CCc2cc(S(=O)(=O)NCc3ccccc3)cc3c2N1CC3,1.5,.
COc1cc(C)c(C)cc1S(=O)(=O)Nc1ccc(Cl)c(N2CCCS2(=O)=O)c1,0.15,.
Cc1ccc(-c2nnc(SCc3cc(=O)c4cc(C)ccc4[nH]3)n2C)cc1,0.22,.
CS(=O)(=O)N1CCc2cc(C(=O)NCc3ccco3)ccc21,14*,-0.51
Cc1c(C)n(-c2cccc(F)c2)c2ncnc(Cl)c12,0.53,2
CSc1cccc(NC(C#N)c2ccccc2)c1 (centres undefined),.,0.17
COc1ccc(OC)c(C2CC(c3ccc(C(C)C)cc3)Nc3nnnn32)c1 (centres undefined),2.4,.
CCc1ccc(-c2cc(C)no2)cc1S(=O)(=O)N(C)Cc1ccccc1,0.12,.
